Bioassay records deposited in PubChem by National Center for Advancing Translational Sciences (NCATS).
ClpP mod = qHTS Assay for Activators of ClpP. Potency, µM (highest dose often 57.5 µM), inactives show at the highest dose activity change, negative = active. ATP-dependent Clp protease proteolytic subunit (Bacillus subtilis (strain 168)), P80244. AID 651965, 2013. 340,000 tested, 1.9% active. purified B. subtilis ClpP, FRET peptide cleavage, 20 min; active = well fitted falling curve with a large enough effect; inconclusive = small, poorly fitted or top-dose-only effect; inactive = no such curve, though single readings can be large or run the other way; also: potency is read from the fitted curve at half-maximal effect; the source files actives as falling curves though it sought activators and does not explain the sign; nearly all actives have a fitted effect of over 65% in size; many hits overshoot -100%
Target sequence (P80244 whole entry, looked up): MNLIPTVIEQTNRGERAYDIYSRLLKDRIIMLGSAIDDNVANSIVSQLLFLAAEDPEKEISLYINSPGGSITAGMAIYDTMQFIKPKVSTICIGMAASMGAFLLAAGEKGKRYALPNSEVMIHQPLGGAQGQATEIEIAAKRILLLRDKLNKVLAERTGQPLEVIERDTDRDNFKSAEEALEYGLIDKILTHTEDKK
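FRET quenching reversal measured ClpP activation: 10 microg/mL B. subtilis ClpP at pH 8 with the FRET-FV decapeptide, read at 430 nm after 320 nm excitation. The 20-min minus 0-min signal was scaled between DMSO/no-enzyme wells and ADEP (5.8 microM final).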
gsp agonist = qHTS for Agonist of gsp, the Etiologic Mutation Responsible for Fibrous Dysplasia/McCune-Albright Syndrome: qHTS; AID 624287, 2012; gsp mutant cells, cAMP HTRF, 30 min; control for the full effect not named in the record; Potency, µM (doses to about 76.9 µM), for the others: at the top dose activation (cAMP increase), actives largely listed as activators; 340,000 tested, 0.13% active; active = well fitted activation curve with a large enough effect; inconclusive = small, poorly fitted or top-dose-only effect, or another doubt; inactive = no such curve, though single readings can be large or run the other way; cell line not stated here;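 also: phosphodiesterase inhibitor Ro 20-1724 added with compounds to block cAMP breakdown; potency is read from the fitted curve at half-maximal effect; nearly all actives have a fitted effect of over 60% in size; about a fifth of the inactives were tested at one dose only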
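Cells in DMEM/10% FBS with G418 were pretreated with compounds in DMSO plus […] (300 uM stock) for 30 min at 37C. cAMP was measured by HTRF (cAMP-d2 plus anti-cAMP antibody-K) after 30 min at room temperature.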
Menin-MLL FL inh = qHTS Assay for Inhibitors Targeting the Menin-MLL Interaction in MLL Related Leukemias: Competition With Fluorescein Labeled MLL-derived Peptide | Fluorescence polarization, fluorescein-MLL peptide displacement from menin | FP activity change, % at 61.4 µM | 290,000 tested, under 10 active; inconclusive = falling polarisation curve, or a change in total fluorescence; inactive = total fluorescence flat and polarisation flat or rising; no compound was filed as active; the % refers to the polarisation; negative = inhibition;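 also: % of control where 0% means no effect; inhibitors lower the polarisation; unlabelled MLL peptide was the positive control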
gsp antag = qHTS for Antagonists of gsp, the Etiologic Mutation Responsible for Fibrous Dysplasia/McCune-Albright Syndrome: qHTS | gsp-mutant cells, cAMP HTRF, 30 min; control for the full effect not named in the record | Potency, µM (doses to about 76.9 µM), for the others: at the highest dose activity change, negative = inhibition, hits mostly inhibitors | 340,000 tested, 0.4% active | AID 624288, 2012; active = falling curve of any shape with a large fitted effect; inconclusive = falling curve, mostly with a smaller effect; inactive = flat or rising curve; cell line not stated here;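 also: intracellular cAMP measured with PDE inhibitor Ro 20-1724 present during compound exposure; potency is read from the fitted curve at half-maximal effect; % is scaled to controls: 0 for no effect and ±100 for the full control effect; nearly all actives have a fitted effect of over 65% in size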
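HTRF cAMP measurement after 30 min RT detection following 30 min, 37C compound treatment alongside […] (added as 300 uM solution) in G418-selected cells seeded at 2000/well and grown 16–24 h.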
D2 ag = Beta-Arrestin HTS for Positive Allosteric Modulators of the Human D2 Dopamine Receptor: Agonists; D(2) dopamine receptor (Homo sapiens), P14416; DiscoveRx PathHunter D2 beta-arrestin, luminescence, 90 min; 100% = 57 uM dopamine signal; activation, % (no concentration beside the values); 360,000 tested, 0.084% active; in the data active = activation above about 40%; inconclusive = about 15% to 40%; inactive = below about 15%; also: compound concentration not given in the record; the text of the record calls up to 30% inactive
Target sequence (P14416 whole entry, looked up): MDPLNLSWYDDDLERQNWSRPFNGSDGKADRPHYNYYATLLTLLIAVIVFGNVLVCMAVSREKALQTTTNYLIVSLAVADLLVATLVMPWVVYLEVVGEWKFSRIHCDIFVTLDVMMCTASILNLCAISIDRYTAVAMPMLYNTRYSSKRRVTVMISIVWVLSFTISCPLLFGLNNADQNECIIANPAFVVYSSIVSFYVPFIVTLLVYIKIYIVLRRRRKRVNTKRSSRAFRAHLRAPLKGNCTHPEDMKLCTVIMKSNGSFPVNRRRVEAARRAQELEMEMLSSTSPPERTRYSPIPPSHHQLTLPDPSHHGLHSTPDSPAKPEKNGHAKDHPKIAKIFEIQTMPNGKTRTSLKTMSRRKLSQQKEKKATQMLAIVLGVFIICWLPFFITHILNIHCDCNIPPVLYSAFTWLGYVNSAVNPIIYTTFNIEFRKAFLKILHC
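DiscoveRx PathHunter D2 beta-arrestin cells (2,100/well) attached overnight, then compound-stimulated 90 min at 37 C in HBSS/10 mM HEPES/0.1% Tween-20 buffer; beta-galactosidase complementation read by luminescence after 1 h at ambient temperature. Dopamine 57 uM final (EC100) as control.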
PINK1 expr mod = A Quantitative High throughput Screen to Identify Chemical Modulators of PINK1 Expression; PINK1 immunofluorescence, high-content cytometry, 24 h; Potency, µM (highest dose often 76.6 µM), for inactives: at the highest dose activation (PINK1 increase), usual class: activators; 410,000 tested, 0.2% active; AID 624263, 2012; active = well fitted activation curve with a large enough effect; inconclusive = small, poorly fitted or top-dose-only effect; inactive = flat fitted curve, though single readings scatter; cell line not stated here;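 also: potency is read from the fitted curve at half-maximal effect; % of control where 0% means no effect; nearly all actives have a fitted effect of over 65% in size; a mitochondrial uncoupler was the plate control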
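PINK1 protein level read as immunofluorescence by microplate cytometer in a fixed, stained stable cell line after 24 h exposure to five compound concentrations, with CCCP as control.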
Sfp inh = qHTS Assay for Inhibitors of Bacillus subtilis Sfp phosphopantetheinyl transferase (PPTase) | Potency, µM, inactives show max response, negative = inhibition, most hits filed as inhibitors | 4'-phosphopantetheinyl transferase ffp (Bacillus subtilis), Q9F4F7 | Biochemical Sfp PPTase activity, qHTS | 310,000 tested, 3.5% active; active = well fitted inhibition curve with a large enough effect; inconclusive = small, poorly fitted or top-dose-only effect, or another doubt; inactive = no such curve, though single readings can be large or run the other way;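 also: the enzyme is Sfp with the accession as filed and its product quenches rhodamine fluorescence; potency is read from the fitted curve at half-maximal effect; 0% = enzyme reaction without inhibitor and -100% = no enzyme wells; top concentration of the series not given in the record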
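Reaction rates are the 30-min fluorescence difference (ex 525, em 598 nm) in wells containing 15 nM Sfp, 5 uM rhodamine-CoA and 12.5 uM BHQ-2-YbbR at pH 7.6 with 10 mM MgCl2.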
Active calls of the source: *; u = inconclusive; x = not tested or not shown; & = joins results of further samples; [ ] = remark or other dose.

SMILES	ClpP mod	gsp agonist	Menin-MLL FL inh	gsp antag	D2 ag	PINK1 expr mod	Sfp inh
COCCN(C(=S)Nc1ccc(OC)c(Cl)c1)C1CCN(C(C)=O)CC1	-0.8%	u	x	x	-4.3	2.3%	x
Cc1c(C(=O)O)oc2c1C(O)CCC2 (configuration not stated)	0.4%	-0.3%	3.5	-0.6%	-0.9	-0.7%[38.3 µM]	12.2%
Cc1ccc(C2CC(C(F)(F)F)n3nc(C(=O)NCc4ccco4)cc3N2)cc1 (configuration not stated)	0.1%	2.6%	8.7	3.0%	-2.7	-2.5%	-4.8%
O=C(N/N=C/c1sc(N2CCOCC2)nc1-c1ccccc1)c1ccccc1Cl	x	-16.1%[15.4 µM]	u	-7.8%	2.0	2.4%	-4.2%
O=C(O)c1ccc2c(c1)OCCOCCOCCOCCOCCO2	-0.7%	26.2%	-7.3	-4.9%	-1.7	5.8%	9.2%
C/C=C1\NC(=O)[C@H](C)NC(=O)[C@@H](NC(=O)[C@@H](Cc2ccc(O)cc2)NC(=O)[C@@H](NC(=O)/C(C)=C/C)C(C)C)[C@@H](C)OC(=O)[C@H](CCCCc2ccc(O)cc2)NC(=O)[C@@H](CCC(=O)OC)NC1=O	1.1%	x	x	x	-3.2	-0.2%	x
Cc1ccc2c(c1)NC(=O)[C@@]1(C)[C@@H](c3ccccc3)[C@H]3COc4ccccc4[C@@H]3N1C2=O	-4.5%	-7.7%	x	-11.5%	-1.7	-1.1%	x
O=C(Nc1cccnc1)c1ccc2c(c1)C(=O)N(Cc1cccnc1)C2=O	0.6%	5.8%	2.1	-5.7%	1.8	2.0%[38.3 µM]	2.6%
CC(OC(=O)Cc1c(F)cccc1Cl)C(=O)NC1(C#N)CCCCC1 (configuration not stated)	-0.7%	-0.2%	x	17.5%	9.0	-0.3%	x
CCN(CC)CCN(C)c1ccc(N2C(=O)C3CC=CCC3C2=O)cc1[N+](=O)[O-] (configuration not stated)	x	-15.7%	-0.1	7.3%	0.2	2.5%	3.4%
CNc1nnc(-c2ccc(C)cc2)c2ccccc12	x	1.8%	3.6	1.3%	-5.9	-3.5%	4.7%
COc1cccc(Cn2c(=O)c(C)nc3cnc(Nc4ccccc4)nc32)c1	x	x	12.6	x	x	7.3%	11.4%
CCCC(=O)N(CC(=O)Nc1sc(C)c(C)c1C(N)=O)Cc1ccccc1	-1.8%	0.4%	4.9	-4.0%	2.5	0.5%	1.2%
CCCCNC(=S)NNC(=O)C12CC3CC(CC(C3)C1)C2	-0.5%	-14.3%	2.1	-2.3%[15.4 µM]	-2.4	-1.7%	15.2%
CC(=O)c1ccc(NC(=O)CCC(=O)N2CC(C)Oc3ccc(C)cc32)cc1 (configuration not stated)	-2.6%	u	x	-3.2%	9.1	-0.5%	4.3%
O=C(Cc1ccc(Cl)cc1)Nc1cccc2ncccc12	-10.1%	-65.9%[inhibitor]	0.7	-3.8%	-1.3	-2.4%	8.9%
CCN1CCN(S(=O)(=O)c2ccc(Cl)c(C(=O)NC3CCCC3)c2)CC1	-29.7%	-1.1%	x	6.7%	3.2	-1.1%	x
CCOc1ccccc1NC(=O)C(OC(=O)c1ccc(O)cc1)c1ccccc1 (configuration not stated)	-3.9%	-13.7%	2.7	-26.1%	1.0	u	u
Cc1oc(-c2cccc(F)c2)nc1CN(Cc1ccccc1)C[C@@H]1CCC(=O)N1	x	0.6%	-3.2	-1.3%	-0.9	0.5%	-11.1%
COc1nc(Nc2ccc3c(c2)OCO3)nc(OC)n1	1.2%	22.9%	-1.5	6.9%	-2.1	-1.1%	-2.7%
CCN(CC)c1ccc(/C=C2/C(=O)c3ccc(C(=O)O)cc3C2=O)cc1	-0.3%	18.1%	u	-27.5%	-2.6	2.3%	u
Nn1c(SC/C=C/c2ccccc2)nnc1-c1ccncc1	-3.6%	-2.0%[15.4 µM]	-2.0	5.7%	-4.6	1.6%	-6.4%
COCc1cc(=O)[nH]c(Nc2nc3ccc(C)cc3o2)n1	1.1%	-34.3%[inhibitor]	4.2	-15.5%	-4.4	-0.4%	-22.7%
CCOc1ccc(CCNC(=O)COC(=O)c2ccc[nH]c2=O)cc1OCC	-1.9%	35.5%	x	12.7%	-4.0	0.9%	x
NNC(=O)c1cccc(COCC(F)(F)C(F)F)c1	-1.5%	6.0%[15.4 µM]	1.6	7.7%	-0.2	1.1%	-2.9%
CCCC(=O)Nc1c(-c2ccc(C)cc2)c(=O)c2ccccc2n1C	3.0%	5.5%	5.9	-1.3%	7.5	-2.3%	9.6%
CCN(CC)c1ccc(/C=N/N2CCN(c3ccccn3)CC2)cc1	-1.4%	0.5%[15.4 µM]	1.0	-2.1%	-2.5	1.1%	18.0%
C=CCn1c(SCC(=O)NCC2CCCO2)nc2sc(C)c(C)c2c1=O (configuration not stated)	1.5%	-15.6%	x	6.9%	-6.3	-0.2%	13.7%
CC(C)C(=O)Nc1ccc(-c2nc3cccnc3o2)cc1	-19.9%	12.0%	-0.1	-9.8%	0.0	0.2%	26.2%
CN(CC(=O)Nc1ccc(C#N)cc1)CC(=O)Nc1ccc(N2CCOCC2)cc1	-11.0%	-39.7%[inhibitor]	-1.6	-2.1%	-0.1	0.0%	4.1%
O=S(=O)(O)c1cnccc1Nc1cccc(C(F)(F)F)c1	-2.1%	-3.9%[15.4 µM]	x	1.5%	-16.3	1.8%	x
O=C(N/N=C/c1c[nH]c2ccccc12)c1cccs1	x	-13.4%	6.7	1.9%	-1.6	2.8%	-3.9%
COc1cc([N+](=O)[O-])ccc1NC(=O)Nc1nc2c(s1)CCCC2	0.0%	5.9%[15.4 µM]	5.2	7.0%	-4.8	8.9%	-7.3%
COc1ccccc1CN1CCCC2(CCN(S(C)(=O)=O)CC2)C1	x	x	-2.4	x	x	0.4%	20.1%
Cc1ccc(OCC(=O)Nc2ccc(Cl)cc2)c(-n2nc3ccccc3n2)c1	u	0.7%	1.2	5.6%	-1.5	x	17.7%
CC(=O)C(=[N+]=[N-])C(=O)NCc1ccccc1	u	2.4%	-0.4	4.8%	-3.6	-1.3%	2.6%
COc1cc2c(cc1OC)C(C)N(S(=O)(=O)c1cccs1)CC2 (configuration not stated)	x	5.4%[15.4 µM]	7.7	5.3%	1.3	-0.6%	-0.9%
COc1ccccc1C1C(C(C)=O)=C(O)C(=O)N1CCc1ccccc1 (configuration not stated)	-12.4%	u	-1.7	-18.5%	0.6	-0.6%	8.6%
CC1CCN(S(=O)(=O)c2cccc(C(=O)NC3CCS(=O)(=O)C3)c2)CC1 (configuration not stated)	-2.6%&1.4%	-26.3%	x	x	-1.3	22.6%&1.1%	x
O=C(Cc1ccccc1Cl)Nc1cc(S(=O)(=O)N2CCOCC2)ccc1N1CCOCC1	-1.5%	-36.3%[inhibitor]	x	-1.5%	1.5	-0.5%	x
OCCNc1ccc(Cl)cc1	2.0%	-1.1%	0.9	-12.5%	-0.8	-1.8%	9.3%
Cc1ccc(S(=O)(=O)NCC(=O)N(CC2CCCO2)C(C(=O)NCC2CCCO2)C(C)C)cc1 (configuration not stated)	x	4.7%[15.4 µM]	1.9	11.5%	-1.8	-0.4%	21.4%
COc1ccc2c(c1)CO[C@]21O[C@H](CCO)C[C@H](O)[C@H]1O	-1.2%	x	x	x	-4.5	0.8%	x
CC(=O)n1c2c(c3ccccc31)OC(N)=C(C#N)C2c1cccc(Cl)c1Cl (configuration not stated)	1.7%	2.8%	9.5	1.1%	-1.7	17.4%	-2.8%
CCC(C)(C)NC(=O)C(c1cccn1C)N(Cc1ccccc1)C(=O)Cn1nnc2ccccc21 (configuration not stated)	2.4%	-6.5%	0.0	10.0%	0.6	1.3%	11.0%
O=S1(=O)N=C(SCCO)c2ccccc21	-5.5%	19.6%	4.6	3.8%	1.7	-1.0%	11.6%
O=C(c1cc(C2CC2)nn1-c1ccccc1)N1CCN(S(=O)(=O)c2cccc(F)c2)CC1	-2.9%	-43.8%[inhibitor]	x	u	-5.6	-0.4%	x
CCC(=O)N1CCCc2cc(S(=O)(=O)N3CCC(N4CCCCC4)CC3)ccc21	-4.6%	9.1%	3.2	5.2%	-1.9	1.0%	7.0%
Brc1ccc(OCCCN2CCOCC2)cc1	u	-19.8%	-2.2	11.0%	-4.3	3.1%	-27.3%
Cc1ccc(CCC(=O)Nc2ccc(C)c(C)c2)o1	2.4%	u	x	4.6%	-1.2	2.8%	-2.4%
O=C(NCc1ccccc1OC(F)(F)F)C1CCC(=O)N(CCc2ccccn2)C1 (configuration not stated)	-0.3%	-70.9%[inhibitor]	x	8.9%	-0.6	0.7%	x
Cc1ccc(-n2nnc3c(=O)n(Cc4cccc(C)c4)cnc32)cc1	-2.7%	-4.2%	-0.5	-6.4%	-3.0	7.1%	-9.5%
CCN1CCN(c2nc(-c3cccnc3)nc3ccccc23)CC1	-2.9%	-4.1%	5.1	-2.1%	-2.7	x	10.8%
Cn1c(SCC(=O)NC(C)(C)C)nnc1-c1ccc(C(C)(C)C)cc1	-1.2%	-16.3%	-0.3	-14.7%	-1.9	-0.1%[38.3 µM]	5.4%
CCc1nc2c(OCc3ccc(C(F)(F)F)cc3)cccn2c1N(C)C(=O)c1ccco1	0.8%	x	x	x	3.3	1.1%	x
CCOC(=O)/C(C#N)=C/Nc1cc(OC)ccc1OC	-25.7%	-8.9%	3.9	-10.5%	-0.6	3.5%	8.5%
O=C(CN(C(=O)Cn1nnc(-c2ccc(F)cc2)n1)c1ccc(F)c(Cl)c1)NCC1CCCO1 (configuration not stated)	-0.4%	-11.7%	-1.8	-2.7%	-2.1	0.6%	16.7%
